Assay outcomes: PubChem BioAssay, several laboratories
Rce1 inh – yeast Rce1p protease inhibitors, primary screen, biochemical, fluorescence, cell-free homogeneous | CAAX prenyl protease 2 (Saccharomyces cerevisiae (strain ATCC 204508 / S288c)), Q03530 | yeast membranes, quenched prenylated peptide cleavage fluorescence | calls only | actives 0.27% (n = 290,000) | AID 2563, 2010;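 active = fall in fluorescence gain of 50% or more versus controls, with final raw signal at or below 3038400; inconclusive = same 50% fall but final raw signal above 3038400; inactive = fall in fluorescence gain under 50%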;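 also: plate controls were neutral control wells for no effect and wells lacking membranes for full effect; tested at 10 µM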
Target sequence (Q03530 whole entry, looked up): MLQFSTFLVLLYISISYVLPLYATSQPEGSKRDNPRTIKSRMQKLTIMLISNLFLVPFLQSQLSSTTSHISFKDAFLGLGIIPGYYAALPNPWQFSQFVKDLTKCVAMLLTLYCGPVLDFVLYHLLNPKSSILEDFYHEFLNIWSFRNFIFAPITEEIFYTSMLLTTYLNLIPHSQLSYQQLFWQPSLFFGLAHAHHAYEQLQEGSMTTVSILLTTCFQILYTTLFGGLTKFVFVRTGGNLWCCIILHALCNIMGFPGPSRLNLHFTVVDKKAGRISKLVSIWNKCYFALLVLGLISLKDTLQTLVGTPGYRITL
CSC inhib – cancer stem cell viability inhibitors, primary screen, luminescence | cancer stem cell-like cells viability | inhibition, % at 7.5 µM | AID 2717, 2010 | actives 1.1% (n = 300,000);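 active = mean at 75% or more and at least half the replicates too; inconclusive = mean and replicates disagree; tested in HMLE shEcad cells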;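 also: 0% = median of negative and 100% = median of positive control wells; the first replicate is given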
UUG fidelity – modulators of yeast start codon fidelity, primary screen, whole organism, S. cerevisiae, single point, plate reader; actives 0.13% (n = 350,000); AID 602363, 2012; activity score, % at 18.7 µM; S. cerevisiae UUG-firefly luciferase reporter, luminescence/redox ratio;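 active = replicate mean at a twofold rise or more, about +100% in these data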;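 also: firefly luciferase made from a UUG start codon reports start codon fidelity; reporter light over untreated wells divided by growth signal over untreated wells; some hits fall short of that in this replicate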
eIF4H FP inh – human eIF4H binding inhibitors, primary screen, translation initiation inhibitor project, biochemical, uHTS, fluorescence polarization | Eukaryotic translation initiation factor 4H (Homo sapiens), Q15056 | eIF4H fluorescence polarization binding assay | inhibition, % at 35 µM | actives 0.94% (n = 290,000) | AID 2012, 2009;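 active = 50% or more with normal probe brightness, or confirmed in later tests; inconclusive = above 50% with abnormal brightness, or retests that disagree; inactive = below 50% or failed in later tests; about a fifth of its hits are not listed in these tables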;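 also: calls also rest on retests at 20 µM and on dose response follow-up; 0% = protein and probe with vehicle and 100% = probe without protein; strong numbers were not always called active; many hits fall short of the cut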
MT1-MMP act inh – blockers of MT1-MMP proenzyme processing, primary screen, HT1080 RFP-PRO-GFP cells, GFP/RFP fluorescence; Matrix metalloproteinase-14 (Homo sapiens), P50281; GFP/RFP ratio fluorescence, overnight; percent of plate control window, DMSO zero; GFP/RFP ratio change, % at 20 µM; actives 0.061% (n = 360,000); AID 651647, 2012;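 active = GFP/RFP ratio change of at least 30% with cell ATP level not reduced by more than half and red fluorescence within 50% of control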; also: strong numbers were not always called active
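Material: RFP-PRO-GFP reporter HT1080 cells. Dosing: single-point 20 µM compound, 1% DMSO. Controls: DMSO and RFP-L50D-GFP cell wells. Timing: cells overnight before dosing, compound overnight, 37 °C, 5% CO2. Measure: GFP/RFP fluorescence ratio.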
Env fusion inh – inhibitors of HIV-1 Env-driven cell-cell fusion, primary screen, HeLa-JRFL effector, CEM21 target cells, luciferase; inhibition, % at 12.3 µM; actives 1.1% (n = 360,000); AID 651610, 2012;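 active = mean replicate inhibition score of at least 50 and every replicate individually at or above 50; inconclusive = only one of the two criteria met; inactive = mean below 50 and not all replicates reaching 50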;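 also: 0% = plate neutral controls and 100% = maraviroc near 300 nM; one replicate is shown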
PABP FP inh – PABP poly(A) RNA binding inhibitors, primary screen, biochemical, fluorescence polarization, uHTS; inhibition, % at 35 µM; actives 1% (n = 290,000); AID 2014, 2009;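 active = 50% or more with normal probe brightness, or confirmed in later tests; inconclusive = above 50% with abnormal brightness, or retests that disagree; inactive = below 50% or failed in later tests; about a fifth of its hits are not listed in these tables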;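 also: calls also rest on retests at 20 µM and on dose response follow-up; controls were probe without protein and protein plus probe with vehicle; some compounds called inactive have numbers as strong as hits; many hits fall short of the cut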
Target sequence (P11940 whole entry, looked up): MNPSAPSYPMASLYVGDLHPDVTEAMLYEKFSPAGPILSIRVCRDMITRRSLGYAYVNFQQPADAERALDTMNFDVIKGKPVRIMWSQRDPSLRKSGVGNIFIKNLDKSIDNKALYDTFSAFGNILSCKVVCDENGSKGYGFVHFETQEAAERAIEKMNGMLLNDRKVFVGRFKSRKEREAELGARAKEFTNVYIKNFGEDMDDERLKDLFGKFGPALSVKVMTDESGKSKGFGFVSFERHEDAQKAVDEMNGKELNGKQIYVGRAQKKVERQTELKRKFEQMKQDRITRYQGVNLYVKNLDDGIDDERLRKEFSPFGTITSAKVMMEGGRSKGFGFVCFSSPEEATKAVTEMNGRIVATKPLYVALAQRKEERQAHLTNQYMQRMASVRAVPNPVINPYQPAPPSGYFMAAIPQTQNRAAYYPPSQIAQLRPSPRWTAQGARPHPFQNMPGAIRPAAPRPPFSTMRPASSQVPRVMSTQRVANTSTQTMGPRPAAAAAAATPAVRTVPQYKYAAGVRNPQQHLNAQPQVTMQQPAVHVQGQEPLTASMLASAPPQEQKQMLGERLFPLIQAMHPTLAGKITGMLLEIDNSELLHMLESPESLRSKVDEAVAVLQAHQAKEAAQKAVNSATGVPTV
MT1-MMP act inh RFP – also measured in MT1-MMP act inh; calls as there; RFP signal change, %; measured here: RFP expression control read;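 0 = vehicle wells; hits needed this value within 50% of zero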
Starred values were filed as active, the others as inactive; i = inactive; ? = inconclusive; / = not tested or not shown.

canonical_smiles,Rce1 inh,CSC inhib,UUG fidelity,eIF4H FP inh,MT1-MMP act inh,MT1-MMP act inh RFP,Env fusion inh,PABP FP inh
C=C(C)CSc1nnc(-c2ccc(C)cc2)n1N,i,3,-9,10,6,6,-105,4
CCCn1c(N)c(C(=O)CSc2nnnn2-c2ccc(O)cc2)c(=O)n(C)c1=O,i,/,/,-12,2,-8,/,0
O=C1CC(SC(=NCc2ccc3c(c2)OCO3)Nc2ccccc2)C(=O)N1 (stereo not drawn),i,-13,-15,6,3,-2,/,5
O=c1c2ccccc2c(C=NCc2ccccn2)c(O)n1-c1ccccc1Cl,i,-5,/,-4,5,3,-1,2
COc1ccc(NC(=O)c2cc(-c3cc(F)ccc3OCC3CCCO3)n[nH]2)cc1OC (stereo not drawn),/,/,-9,/,-2,-7,-20,/
O=C1CC(Cc2ccc(Cl)cc2)C(=O)N1c1ccncc1 (stereo not drawn),i,1,-10,-6,1,-6,/,8
COc1ccc(Cl)cc1-c1nc(SCC(=O)N(C)CCC#N)n[nH]1,i,12,-8,1,2,4,19,-7
FC(F)Oc1ccccc1NC(=S)NCCc1ccccc1,i,-14,-23,/,2,-8,-9,/
CCOc1ccc(S(=O)(=O)NCCC(=O)N(C)CC(=O)Nc2ccc(OC)cc2)cc1,i,-9,-3,0,-1,0,-6,20
CCC(=O)N1CCc2cc(S(=O)(=O)CCC(=O)NCCc3ccc(S(N)(=O)=O)cc3)ccc21,i,-9,-7,-6,0,2,3,2
Cc1cccc(Nc2nn3c(=O)c4ccccc4nc3s2)c1,i,-14,-6,32,5,7,-76,22
Cn1c2ccccc2c(=O)c2ccc(-c3ccc4c(c3)OCO4)cc21,i,54,-9,2,3,-1,-368,-7
Nc1nc2ccccc2cc1S(=O)(=O)c1ccccc1,i,/,3,2,4,-4,7,-9
Cc1ccc(CNC(=O)CN(c2ccc(C(C)C)cc2)S(=O)(=O)c2c(C)noc2C)cc1,i,3,-11,-4,-2,-3,-1,12
COc1cc(OC)cc(C(=O)Nc2cc(-c3cn4cccnc4n3)ccc2C)c1,i,-21,/,-4,1,4,-9,-1
CCN(CC)CC(=O)NCC1(c2ccccc2)CCCC1,i,-8,/,-8,3,1,1,-4
Cc1ccccc1CNC(=O)CN(c1cccc([N+](=O)[O-])c1)S(C)(=O)=O,i,2,-12,-3,1,3,8,-4
CCOC(=O)N1CCc2c(sc(NC(=O)CN3CCN(C)CC3)c2C(=O)Nc2ccccc2)C1,i,31,/,4,-4,-2,1,9
CCCCNC(=O)C1(C)CCCCCN1Cc1cccc2c(OC)cc(C(=O)OCC)cc12 (stereo not drawn),/,/,12,/,-8,-6,46,/
CCCC(=O)N1CC2(C)CN(C(=O)CCC)CC(CCC)(C1)C2=O,i,11,-5,4,-1,0,/,7

The closing two entries of the part above open the next one.
canonical_smiles,Rce1 inh,CSC inhib,UUG fidelity,eIF4H FP inh,MT1-MMP act inh,MT1-MMP act inh RFP,Env fusion inh,PABP FP inh
CCCCNC(=O)C1(C)CCCCCN1Cc1cccc2c(OC)cc(C(=O)OCC)cc12 (stereo not drawn),/,/,12,/,-8,-6,46,/
CCCC(=O)N1CC2(C)CN(C(=O)CCC)CC(CCC)(C1)C2=O,i,11,-5,4,-1,0,/,7
CN(CC(=O)Nc1ccc(Cl)cc1)C(=O)CCc1ccccc1,i,/,-9,-14,-2,1,9,0
Cc1cccc(-n2c(N)c(C(=O)N3CCN(C)CC3)sc2=S)c1,i,/,-15,0,1,5,/,0
O=C(NCC1CCCO1)/C(=C\c1ccc(Cl)cc1)NC(=O)c1ccccc1 (stereo not drawn),i,-16,/,0,3,7,/,3
O=C(Nc1nc(-c2ccccc2)cs1)c1cccc([N+](=O)[O-])c1,i,19,-11,-3,0,-14,-33,4
Cc1ccc(Cn2c(SCCN3CCCCC3)nc3c2c(=O)[nH]c(=O)n3C)cc1,i,-11,-14,-3,0,2,/,8
COc1cc(/C=N/NC(N)=S)ccc1OCc1ccc(C)cc1,i,76*,/,-4,-45,-29,-26,0
O=C(c1cc2cc(F)ccc2[nH]1)N1CCN(c2cccc(Cl)c2)CC1,i,-5,-5,4,-3,-1,-4,-6
O=C(c1ccccc1)N1N=C(c2ccccc2O)CC1c1ccc(Br)cc1 (stereo not drawn),i,9,-16,-11,-3,-3,8,10
CC1=NN(c2ccccc2)C(=O)C1C(=O)C(=O)Nc1ccc(F)cc1 (stereo not drawn),i,-12,/,-3,-1,-1,-33,-7
O=C(c1ccc(OC2CCN(C/C=C/c3ccccc3)CC2)cc1)N1CCCCC1,i,-4,-7,-4,-5,-2,4,-12
CCOC(=O)c1cc(-c2ccccc2)nn1CC1CC(c2cccnc2)=NO1 (stereo not drawn),i,-3,-16,/,-1,3,4,/
CCOC(=O)N1CCN(c2nc(-c3ccccc3)c3cc(C)ccc3n2)CC1,i,8,-1,-6,/,/,7,4
CCn1nc(NC(=O)c2ccccc2)c2cc3cccc(C)c3nc21,i,16,-3,-11,-4,-7,4,1
CC(C)(C)C(=O)N1CCN(c2ccc(NC(=O)c3ccc([N+](=O)[O-])o3)cc2)CC1,i,1,-7,-7,-5,-22,-43,6
CCCn1c(NC(=O)CN2C(=O)NC3(CCCCC3)C2=O)nc2ccccc21,i,-4,/,/,-3,2,-45,/
Cc1ccc(S(=O)(=O)N2CCN(C(C)CC(=O)O)CC2)cc1 (stereo not drawn),i,6,-6,2,-1,4,9,4
CCCC(=O)Nc1nnc(CCN2CCCCC2)s1,i,-1,-23,-13,2,6,-25,4
O=C(Nc1nc2ccc(S(=O)(=O)N3CCCC3)cc2s1)c1ccccn1,i,33,/,1,15,-3,-16,-1
CCC(NC(=S)NCc1ccc(F)cc1)c1ccc(C)cc1 (stereo not drawn),i,-5,-34,-8,-1,-7,8,-2
COc1cccc(C2c3c(oc4ccccc4c3=O)C(=O)N2CCCN2CCOCC2)c1OC (stereo not drawn),/,/,-21,/,-1,4,-10,/

Remaining list, next part
Below each compound – Rce1 inh, CSC inhib, UUG fidelity, eIF4H FP inh, MT1-MMP act inh, MT1-MMP act inh RFP, Env fusion inh, PABP FP inh
CCOC(=O)c1oc2cc(O)ccc2c(=O)c1-c1ccc(OC)cc1
  i, -13, /, 0, -1, -3, /, -7
O=C(Nc1cccc2c1CCCC2)c1cc([N+](=O)[O-])cc([N+](=O)[O-])c1
  i, -3, -35, -2, 2, 2, /, 10
COc1cc(/C=C/c2sc3ccccc3[n+]2CCCS(=O)(=O)[O-])ccc1O
  i, 9, /, ?, 24, 67, -10, ?
O=C(N/N=C/c1ccc(Cl)cc1)C(=O)N1CCCCCC1
  i, -7, -11, -2, 1, 2, -7, 0
Cc1ccc(C)c(NC(=O)c2nnn(Cc3ccccc3)c2N)c1
  i, 7, -17, -18, -2, -2, 14, 1
CCCNc1c(NS(=O)(=O)c2ccc(NC(=O)CC)cc2)c(=O)oc2ccccc12
  i, -6, /, -7, -5, -4, 2, 3
CCOC(=O)c1[nH]c(C)c(C(=O)NCc2ccccn2)c1C
  i, -7, -4, 8, 6, 7, 23, 5
CC(C)n1cc(/C=C(\C#N)S(=O)(=O)c2ccccc2)c2ccccc21
  i, -4, -15, -4, -1, -3, -74, -13
O=C(O)CCCC(=O)Nc1ccc(Br)cc1
  i, 4, -15, -5, 5, 0, -18, 6
CC/C(=C\C1CCCCC1)C(NP(=O)(c1ccccc1)c1ccccc1)c1ccccc1 (stereo not drawn)
  i, 126*, -8, -11, -19, -14, 107*, 3
CCC1Oc2ccc(C)cc2N(CC(=O)NCCN2C(C)CCCC2C)C1=O (stereo not drawn)
  i, -3, -21, -2, 3, 6, -34, 2
CCOc1ccc(N(CC(=O)NC2CCCCC2)C(=O)CNC(=O)c2ccco2)cc1
  i, /, -1, /, 4, 7, /, /
CN(C)S(=O)(=O)c1ccc(/C(O)=C2/C(=O)C(=O)N(Cc3cccnc3)C2c2ccncc2)cc1 (stereo not drawn)
  i, -9, -21, -14, 3, 5, -42, 4
CCOc1ccc(CCNC(=O)CSc2cc(=O)n(C)c3ccccc23)cc1OCC
  i, 3, 9, 4, -1, -7, 10, 12
Nc1nnc(CC(=O)N2CCCCC2)s1
  i, -11, -15, -7, -1, -1, -30, -2
COC(=O)c1sccc1N/N=C(\C)c1ccc(F)c(Cl)c1
  i, -8, -16, 5, -4, -3, -51, -1
CCc1ccc(CN2CCC(Oc3ccc(C(=O)N4CCCC4)cc3)CC2)cc1
  i, 1, 1, 5, 2, -2, 19, 12
O=C(NCc1ccc2c(c1)OCO2)c1ccc(Cl)nc1
  i, -6, /, -17, -4, 1, -13, -3
CCN(CC)S(=O)(=O)c1cccc(C(=O)Nc2ccc(C#N)cc2)c1
  i, -4, -5, 14, 20, -13, 57*, 8
CCn1c(O)c(N=NC(=O)CNC(=O)c2cccnc2)c2ccccc21
  /, /, -27, /, 0, -4, -1, /
Cn1c(Cn2c(=O)sc3ccccc32)nnc1SCC(=O)Nc1ccc2c(c1)OCO2
  i, -11, -18, /, 1, 2, 30, /
COc1ccc(OC(=O)c2cc3cc(Cl)ccc3oc2=O)cc1
  i, 3, 2, 1, 1, 2, 12, 4
COc1ccc(OC)c(CCNC(=O)c2ccc(CS(=O)(=O)c3ccc(Br)cc3)o2)c1
  i, -11, -13, 1, 6, -3, 21, -6
CCc1ccc([C@H]2[C@@H]3C(=O)C[C@@H]4C(=O)N(CC)C(=O)[C@@H]4[C@@H]3CN2S(=O)(=O)c2ccc(C)cc2)cc1
  /, /, 17, /, -2, 1, 54, /

Retrieved by compound from above, 2 records:
Below each compound – Rce1 inh, CSC inhib, UUG fidelity, eIF4H FP inh, MT1-MMP act inh, MT1-MMP act inh RFP, Env fusion inh, PABP FP inh
CCc1ccc([C@H]2[C@@H]3C(=O)C[C@@H]4C(=O)N(CC)C(=O)[C@@H]4[C@@H]3CN2S(=O)(=O)c2ccc(C)cc2)cc1
  /, /, 17, /, -2, 1, 54, /
CCN(CC)S(=O)(=O)c1cccc(C(=O)Nc2ccc(C#N)cc2)c1
  i, -4, -5, 14, 20, -13, 57*, 8

Quoted from the listing.
Reading for CCCn1c(N)c(C(=O)CSc2nnnn2-c2ccc(O)cc2)c(=O)n(C)c1=O in PABP FP inh: 0
Reading for CN(CC(=O)Nc1ccc(Cl)cc1)C(=O)CCc1ccccc1 in eIF4H FP inh: -14

Some of the compounds tested; count on the stated rates, not on these rows.
